Screening data: PubChem BioAssay, Broad Institute
BJeLR viab HTS – BJeLR cell viability reduction. viability loss activity score, % (test concentration not listed). AID 2275. 0.64% of 30,000 active. BJeLR fibroblasts viability, CellTiterGlo ATP luminescence, 48 h; HRASV12, hTERT and SV40 LT/ST transformed; in the data active = viability loss activity score above about 50%; about a fifth of its hits are not listed in these tables;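 note: higher score means fewer live cells and less ATP luminescence; stock transfer was 50 or 100 nL into about 30 µL; 0% = vehicle wells and 100% = a reference killing control; one replicate is shown; the record names a cut of 85%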
A1 inh – A1 inhibition. MEF A1-2A-BIM cells, caspase-Glo luminescence, 3 h; percent of clofoctol signal, DMSO as zero. caspase activation, % (test concentration not listed). 0.51% of 21,000 active. AID 2241;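 active = most replicate scores above 10, or exactly half above 10 with mean activity above 10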;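 note: effector caspase 3 and 7 activity cleaving a DEVD luciferin substrate; 50 nL library stock added to about 30 µL; numbers are from one replicate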
Numbers without * were called inactive; . = no result given. This is a subset, so the mix of outcomes need not match the whole.

Under each structure: BJeLR viab HTS | A1 inh
COc1ccc(NC(=O)Nc2cccc3c2O[C@H](CN(C)C(=O)Nc2ccc(OC)cc2)[C@@H](C)CN([C@@H](C)CO)C3=O)cc1
  5.7 | .
Cc1cccc(-n2cc(-c3cc4cc(Cl)ccc4oc3=O)[nH]c2=S)c1
  48 | .
CC(C)c1ccc(N2C(=O)CSCC2(C(=O)NC2CCCCC2)c2ccc(Cl)cc2)cc1 (stereo not given)
  -1.7 | -0.8
C[C@H]1CN([C@@H](C)CO)C(=O)c2cc(NC(=O)Nc3ccc(C(F)(F)F)cc3)ccc2O[C@H]1CN(C)C(=O)Nc1ccc(C(F)(F)F)cc1
  -0.6 | -0.1
C[C@@H]1CN([C@H](C)CO)C(=O)c2cccc(NC(=O)C3CCOCC3)c2O[C@@H]1CN(C)C(=O)Nc1ccc(F)cc1
  21 | .
C[C@H](CO)N1C[C@H](C)[C@H](CN(C)S(=O)(=O)c2cn(C)cn2)Oc2ccc(NC(=O)CCC(F)(F)F)cc2C1=O
  -0.2 | 0.0
Cc1noc(C)c1NC(=O)Nc1ccc2c(c1)C(=O)N([C@@H](C)CO)C[C@H](C)[C@@H](CN(C)S(=O)(=O)c1ccc(F)cc1)O2
  -0.1 | -0.2
CCN1CCN(c2nc(-c3cccc(Cl)c3)c3c(n2)-c2ccccc2OC3)CC1
  5.1 | -0.6
Cc1noc(C)c1S(=O)(=O)Nc1ccc2c(c1)C(=O)N([C@@H](C)CO)C[C@H](C)[C@H](CN(C)C(=O)Nc1cccc3ccccc13)O2
  -9.2 | 0.1
CCCc1[nH]c(Br)nc1-c1ccccc1
  -2.7 | -0.7
COc1ccc(N(C)C(=O)c2cc3c(=O)oc4ccccc4c3s2)cc1
  5.0 | .
CN(CC(=O)N1CCc2ccccc2C1)S(=O)(=O)c1ccc(Cl)cc1
  2.0 | 0.4
C[C@H]1CN([C@@H](C)CO)C(=O)c2cc(NC(=O)Cc3ccccc3)ccc2O[C@@H]1CN(C)C(=O)Nc1ccc(F)cc1
  -1.9 | -0.2
C[C@H](CO)N1C[C@H](C)[C@H](CN(C)C(=O)Nc2cccc3ccccc23)Oc2c(NC(=O)C3CCCCC3)cccc2C1=O
  3.1 | .
CC1(C)Cc2ccccc2C(Nc2nc(-c3ccccc3)cs2)=N1
  5.2 | -0.8

(listing goes on)
Under each structure: BJeLR viab HTS | A1 inh
Cc1nc(-c2ccc(S(=O)(=O)N3CCCc4ccccc43)s2)cs1
  56* | -0.1
COC(=O)c1nnc(Nc2ccc(Oc3ccccc3)cc2)c2ccccc12
  9.1 | -0.5
COc1ccc(S(=O)(=O)N(C)C[C@@H]2Oc3ccc(NC(=O)Nc4ccc(C(F)(F)F)cc4)cc3C(=O)N([C@H](C)CO)C[C@H]2C)cc1
  -6.0 | -0.2
C[C@@H]1CN([C@H](C)CO)C(=O)c2cc(NC(=O)C3CCCCC3)ccc2O[C@@H]1CN(C)Cc1ccc(C(=O)Nc2ccccc2N)cc1
  11 | .
COc1ccc(NC(=O)N(C)C[C@@H]2Oc3c(NS(=O)(=O)c4cccs4)cccc3C(=O)N([C@@H](C)CO)C[C@@H]2C)cc1
  -1.9 | .
CC(=O)Oc1ccccc1C(=O)N1CCc2ccccc21
  1.7 | 1.1
Fc1ccc2nc(Nc3nc4ccc(F)cc4s3)sc2c1
  -0.1 | .
COc1ccc(CN(C)C[C@H]2Oc3c(NS(=O)(=O)c4ccc(OC)cc4)cccc3C(=O)N([C@H](C)CO)C[C@@H]2C)cc1
  -0.2 | .
C[C@@H]1CN([C@@H](C)CO)C(=O)c2cc(N(C)C)ccc2O[C@@H]1CN(C)C(=O)NC1CCCCC1
  1.7 | -0.1
C[C@H]1CN([C@@H](C)CO)C(=O)c2cc(NS(=O)(=O)c3ccc(F)cc3)ccc2O[C@@H]1CN(C)Cc1ccc(C(=O)O)cc1
  4.6 | 0.2
C[C@H]1CN([C@@H](C)CO)C(=O)c2cccc(NC(=O)Nc3ccc(F)cc3)c2O[C@H]1CN(C)S(=O)(=O)c1ccc(Cl)cc1
  -0.9 | .
C[C@H]1CN([C@@H](C)CO)C(=O)c2cc(NC(=O)CCCCCC(=O)Nc3ccccc3N)ccc2O[C@H]1CN(C)C(=O)Nc1ccc(F)cc1
  -8.0 | .
O=C1N=C(c2cccc(O)c2)c2ccccc2Nc2ccccc21
  -3.9 | -0.2
Cc1cccc(CN2C(=O)CSc3ccc(C(=O)NCc4c(F)cc(F)cc4F)cc32)c1
  -1.1 | .
C[C@H]1CN([C@@H](C)CO)C(=O)c2cc(NC(=O)C3CC3)ccc2O[C@@H]1CN(C)Cc1ccc(-c2ccccc2)cc1
  -7.2 | -0.4

(list continues)
Under each structure: BJeLR viab HTS | A1 inh
C[C@@H]1CN([C@H](C)CO)C(=O)c2cccc(NS(=O)(=O)c3ccc(Cl)cc3)c2O[C@@H]1CN(C)C(=O)Nc1ccc(C(F)(F)F)cc1
  -6.6 | .
Cc1noc(C)c1NC(=O)Nc1cccc2c1O[C@H](CN(C)C(=O)Nc1ccc(C(F)(F)F)cc1)[C@H](C)CN([C@@H](C)CO)C2=O
  1.6 | .
CCSC(=S)c1c(C)[nH]n(-c2ccccc2)c1=O
  26 | -1.8
C[C@@H]1CN([C@H](C)CO)C(=O)c2cc(NC(=O)C3CCCCC3)ccc2O[C@H]1CN(C)S(=O)(=O)c1ccccc1
  1.9 | 0.2
COc1ccc(NC(=O)Nc2cccc3c2O[C@H](CN(C)C(=O)Nc2ccc(OC)cc2)[C@H](C)CN([C@@H](C)CO)C3=O)cc1
  -2.0 | .
FC(F)(F)c1[nH]nc(-c2ccccc2)c1C12CC3CC(CC(C3)C1)C2
  5.5 | 11*
Cc1noc(C)c1S(=O)(=O)NC(C)c1ccccc1 (stereo not given)
  -0.3 | .
CCOc1ccc2c(c1)sc1c(C)cc(=O)oc12
  -3.2 | -0.4
Cc1ccc2nc(CCCC(=O)O)[nH]c2c1
  -1.7 | -0.7
C[C@H]1CN([C@@H](C)CO)C(=O)c2cccc(NC(=O)C3CCOCC3)c2O[C@@H]1CN(C)Cc1ccc(Cl)c(Cl)c1
  6.1 | .
O=C(NC1CCCCC1)C1c2cccn2CC(=O)N1CCCN1CCCC1=O (stereo not given)
  -0.3 | .
COc1ccccc1CNC(=O)c1nnc(Cc2ccc(F)cc2)o1
  -2.0 | .
C[C@@H]1CN([C@H](C)CO)C(=O)c2cccc(NS(=O)(=O)c3ccc(Cl)cc3)c2O[C@@H]1CN(C)Cc1ccc(C(=O)O)cc1
  6.3 | .
C[C@@H]1CN([C@@H](C)CO)C(=O)c2cc(NC(=O)CCCCCC(=O)Nc3ccccc3N)ccc2O[C@H]1CN(C)C(=O)Nc1ccc2c(c1)OCO2
  1.0 | .
COc1ccc2nc3[nH]nc(NC(=O)Cc4ccccc4OC)c3cc2c1
  -8.9 | -1.1

Filtered by structure, those above with an NH in an aromatic ring (6)
Under each structure: BJeLR viab HTS | A1 inh
Cc1cccc(-n2cc(-c3cc4cc(Cl)ccc4oc3=O)[nH]c2=S)c1
  48 | .
CCCc1[nH]c(Br)nc1-c1ccccc1
  -2.7 | -0.7
CCSC(=S)c1c(C)[nH]n(-c2ccccc2)c1=O
  26 | -1.8
FC(F)(F)c1[nH]nc(-c2ccccc2)c1C12CC3CC(CC(C3)C1)C2
  5.5 | 11*
Cc1ccc2nc(CCCC(=O)O)[nH]c2c1
  -1.7 | -0.7
COc1ccc2nc3[nH]nc(NC(=O)Cc4ccccc4OC)c3cc2c1
  -8.9 | -1.1

(further entries)
Under each structure: BJeLR viab HTS | A1 inh
CCC(C)NC(=O)c1ccc2c(c1)N=C(C)c1cc(Cl)ccc1S2 (stereo not given)
  5.9 | .
Cc1ccc2c(c1)C(c1ccccc1)N(C(=O)c1ccc(C)c(C)c1)CC(=O)N2 (stereo not given)
  -1.4 | .
C[C@H](CO)N1C[C@H](C)[C@@H](CN(C)Cc2ccc3c(c2)OCO3)Oc2ccc(NC(=O)CCCN(C)C)cc2C1=O
  -0.8 | 0.2
N=c1c(C(=O)NC2CCCCC2)cc2c(=O)n3ccccc3nc2n1Cc1cccnc1
  -0.6 | 0.1
Cc1noc(C)c1S(=O)(=O)Nc1ccc2c(c1)C(=O)N([C@@H](C)CO)C[C@@H](C)[C@@H](CN(C)Cc1ccc(Cl)c(Cl)c1)O2
  -2.4 | 0.0
COc1ccc2cc3cc(C(=O)NCCC(C)C)sc3nc2c1
  0.0 | .
S=C1NN(c2ccccc2)C2=C(CCC2)S1
  -0.9 | -0.5
COc1ccc(/C=C\C(=O)Nc2c3c(nn2-c2cccc(Cl)c2)CSC3)cc1OC
  -4.2 | -0.6
C[C@H]1CN([C@@H](C)CO)C(=O)c2cc(NC(=O)Nc3ccc(C(F)(F)F)cc3)ccc2O[C@H]1CN(C)S(=O)(=O)c1ccc(F)cc1
  -2.1 | -0.5
COc1ccc(C2C(C(=O)Nc3ccc(C(F)(F)F)cc3)c3ccccc3C(=O)N2C)cc1 (stereo not given)
  3.7 | .
COc1cc(/C(C)=C/C(C)=C\C(=O)O)oc(=O)c1C
  -0.2 | 0.0
Cc1noc(C)c1NC(=O)Nc1ccc2c(c1)C(=O)N([C@@H](C)CO)C[C@H](C)[C@@H](CN(C)S(=O)(=O)c1ccccc1)O2
  -0.1 | 0.4
CC(C)(C)c1cc(O)c(C(C)(C)C)cc1O
  3.6 | 2.4
CC(C)CCN1NC(C)(C)NC1=S
  -0.2 | .
COc1ccccc1C1C(C(=O)Nc2ccccc2F)=C(C)NC2=C1C(=O)CCC2 (stereo not given)
  0.0 | -0.1

Next section
Under each structure: BJeLR viab HTS | A1 inh
O=C(Cn1c(=O)oc2cc(S(=O)(=O)NCc3ccccc3)ccc21)Nc1ccc(F)cc1
  2.4 | -0.2
CCOC(=O)N1CCN(C(=O)C2COc3ccccc3O2)CC1 (stereo not given)
  1.8 | .
C[C@@H]1CN([C@@H](C)CO)C(=O)c2cccc(NC(=O)c3ccncc3)c2O[C@@H]1CN(C)S(C)(=O)=O
  -2.4 | .
OC(COc1ccc(F)cc1)(c1ccc(Cl)cc1)c1ccc(Cl)cc1
  2.0 | 1.4
Cc1ccc(NC(=O)CCn2nnc(-c3ccc(OCc4ccccc4F)cc3)n2)cc1C
  -1.0 | -1.2
Cc1ccccc1NC(=O)C1CCN(C(=O)c2cc3sccc3n2Cc2ccc(F)cc2)CC1
  -2.2 | 0.6
Cc1ccc(S(=O)(=O)c2[nH]nc3ccc(Cl)cc23)cc1
  -1.9 | -0.2
C[C@@H]1CN([C@@H](C)CO)C(=O)c2cc(NC(=O)CCCN(C)C)ccc2O[C@H]1CN(C)S(C)(=O)=O
  -2.8 | 1.3
C[C@@H]1CN([C@H](C)CO)C(=O)c2cc(NC(=O)Cc3ccccc3)ccc2O[C@H]1CN(C)Cc1ccncc1
  -3.5 | 0.3
O=C(NCc1cccnc1)/C(=C\c1cccc(Oc2ccccc2)c1)S(=O)(=O)c1ccccc1
  96* | 47*
C[C@H]1CN([C@@H](C)CO)C(=O)c2cccc(NS(=O)(=O)c3cccs3)c2O[C@H]1CN(C)Cc1ccncc1
  2.5 | .
CC1(C)S[C@@H]2[C@H](NC(=O)[C@H](N)c3ccc(O)cc3)C(=O)N2[C@H]1C(=O)O
  0.0 | 0.2
Cc1cc(/C=N/n2cnnc2)c(C)n1-c1cccc(C(F)(F)F)c1
  5.7 | .
c1coc(CCC2NCCn3cccc32)c1 (stereo not given)
  -0.8 | -0.5
O=C(O)CN1CCN(Cc2ccccc2)C1=O
  -2.7 | 0.1

Carrying on.
Under each structure: BJeLR viab HTS | A1 inh
COc1cc2ccc(=O)oc2c(O)c1O
  0.0 | -0.2
C[C@H](CO)N1C[C@H](C)[C@H](CN(C)S(C)(=O)=O)Oc2c(NS(=O)(=O)c3ccc(Cl)cc3)cccc2C1=O
  5.7 | .
N#CC(CC(=O)c1ccccc1)c1ccccc1 (stereo not given)
  -2.4 | 1.5
O[C@]12CO[C@H](c3ccc4c(c3)OCO4)[C@H]1CO[C@@H]2c1ccc2c(c1)OCO2
  0.9 | -0.4
CNC[C@H]1Oc2c(NS(=O)(=O)c3ccccc3)cccc2C(=O)N([C@H](C)CO)C[C@H]1C
  2.0 | .
C[N+]1(CC(=O)OCCCc2ccccc2)CCOCC1
  -2.7 | .
C[C@@H]1CN([C@H](C)CO)C(=O)c2cc(NC(=O)Cc3ccccc3)ccc2O[C@H]1CN(C)C(=O)Nc1ccccc1
  3.7 | 0.2
Cc1cc(Sc2nnc(/N=C/N(C)C)s2)c2ccccc2n1
  54* | -0.1
COc1ccc(Cl)cc1C(=O)Nc1ccc(NC(=O)c2ccco2)cc1
  5.9 | -0.6
Cc1sc2nc3n(c(=O)c2c1C)N=C(c1ccc(F)cc1)CS3
  6.3 | -1.1
Cc1c(C#N)c(Sc2ccccc2NC(=O)c2ccccc2)nc2ccccc12
  -0.9 | -0.5
C[C@H](CO)N1C[C@H](C)[C@@H](CN(C)C(=O)Nc2ccc(C(F)(F)F)cc2)Oc2ccc(NS(C)(=O)=O)cc2C1=O
  0.0 | -0.1
Clc1ccc(CCc2ccc(Cl)cc2)cc1
  0.6 | 0.3
C[C@H](CO)N1C[C@H](C)[C@@H](CN(C)Cc2ccncc2)Oc2ccc(NC(=O)Nc3ccccc3)cc2C1=O
  -3.8 | 0.6
FC(F)(F)c1cccnc1NCCNc1ncnc2scc(-c3ccccc3)c12
  11 | .
C[C@@H]1CN([C@@H](C)CO)C(=O)c2cc(NC(=O)C3CC3)ccc2O[C@H]1CN(C)Cc1ccccc1
  1.4 | 0.2
C[C@H]1CN([C@@H](C)CO)C(=O)c2cccc(NC(=O)Nc3ccc(C(F)(F)F)cc3)c2O[C@H]1CN(C)Cc1ccc(C(F)(F)F)cc1
  3.1 | .
